Source: PubChem
LASV entry inh: inhibitors of Lassa virus binding or cell entry; Potency, µM (series often up to 37.9 µM), inactives show at the highest dose activity change, negative = inhibition, most hits filed as inhibitors; hit rate 1.2% among 300,000; Lassa virus pseudotype entry inhibition, cell reporter; control for the full effect not named in the record; active means well fitted inhibition curve with a large enough effect; inconclusive means small, poorly fitted or top-dose-only effect, or effect the other way; inactive means flat fitted curve, though single readings scatter; tested in HEK293 cells; also: % is scaled to controls: 0 for no effect and ±100 for the full control effect; nearly all actives have a fitted effect of over 50% in size; luciferase read-out
SARS PLP yeast: SARS-CoV PLP inhibition in yeast; hit rate 0.19% among 330,000; S. cerevisiae expressing SARS-CoV PLpro, growth rescue; control for the full effect not named in the record; Potency, µM (titrated, usually from 32.9 µM), for inactives: top-dose activity, positive = growth rescue; active means well fitted rising curve with a large enough effect; inconclusive means small, poorly fitted or top-dose-only effect; inactive means no such curve, though single readings can be large or run the other way; also: 0% is about no effect; nearly all actives have a fitted effect of over 55% in size; growth read by luminescence after 48 h
StopGo reporter: lowers the luciferase signal of an FMDV 2A StopGo reporter. human cells with a luciferase reporter of 2A StopGo recoding; control for the full effect not named in the record. Potency, µM (series often up to 57.9 µM), inactives show top-dose signal change, negative = less light. hit rate 1.2% among 410,000. AID 1159524; active = well fitted falling curve with a large enough effect; inconclusive = small, poorly fitted or top-dose-only effect; inactive = no such curve, though single readings can be large or run the other way; tested in HEK293T cells; also: % is scaled to controls: 0 for no effect and ±100 for the full control effect; nearly all actives have a fitted effect of over 45% in size; luciferase light after 4 h
Marburg entry inh: blocks Marburg virus binding to or entry into cells; Marburg virus pseudotyped entry inhibition, cell reporter; control for the full effect not named in the record; about a third of the inactives were read at about 46 µM; Potency, µM (titrated, usually from 37.8 µM), for inactives: top-dose activity change, negative = inhibition, usual class: inhibitors; hit rate 1.8% among 300,000; active = well fitted inhibition curve with a large enough effect; inconclusive = small, poorly fitted or top-dose-only effect, or effect the other way; inactive = flat fitted curve, though single readings scatter; tested in HEK293 cells; about a fifth of its hits are not listed in these tables; also: % is scaled to controls: 0 for no effect and ±100 for the full control effect; luciferase read-out
RE007 growth inh: less growth of the S. pombe RE007 Vpr strain; S. pombe RE007 Vpr strain, BacTiter-Glo ATP luminescence, 24 h; control for the full effect not named in the record; Potency, µM (doses to about 92.2 µM), without a hit: at the top dose activity change, negative = less growth; hit rate 0.21% among 360,000; AID 651644; active = well fitted falling curve with a large enough effect; inconclusive = small, poorly fitted or top-dose-only effect; inactive = no such curve, though single readings can be large or run the other way;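 also: % is scaled to controls: 0 for no effect and ±100 for the full control effect; nearly all actives have a fitted effect of over 50% in size; the assay follows cell death caused by Vpr and the record does not say whether a fall means rescue or toxicity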
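Fission yeast RE007 carrying one integrated HIV-1 vpr copy, seeded at OD 0.01 in PMG+AL medium with 23 nL pinned compound. Grown 24 h at 30 degrees; viability read by BacTiter-Glo luminescence after 5 min.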
NS1 inh: inhibitors of influenza NS1 protein function; hit rate 0.4% among 270,000; Potency, µM (doses to about 46.1 µM), inactives show at the top dose activity, positive = more growth; S. cerevisiae slowed by influenza A NS1, growth recovery by OD600; active means well fitted rising curve with a large enough effect; inconclusive means small, poorly fitted or top-dose-only effect; inactive means no such curve, though single readings can be large or run the other way; also: nearly all actives have a fitted effect of over 50% in size
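Read-out: OD600 growth recovery of NS1-expressing budding yeast. Cells grown overnight at 30C in -URA glucose medium, washed, resuspended and diluted 1:100 in 2% galactose assay medium, pH 6.0. Same strain lacking NS1 served as positive control.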
Cruzain inh Det: inhibitors of Trypanosoma cruzi cruzain with detergent. Potency, µM, inactives show max response, negative = inhibition, actives largely listed as inhibitors. AID 1478. hit rate 0.43% among 200,000. P25779. purified cruzain, Z-FR-AMC fluorescence, 0.01% Triton;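 also: plate controls were neutral wells for no effect and buffer without enzyme for full effect; nearly all actives have a fitted effect of over 40% in size; top concentration of the series not given in the record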
Target sequence (P25779 123-467 limits assumed): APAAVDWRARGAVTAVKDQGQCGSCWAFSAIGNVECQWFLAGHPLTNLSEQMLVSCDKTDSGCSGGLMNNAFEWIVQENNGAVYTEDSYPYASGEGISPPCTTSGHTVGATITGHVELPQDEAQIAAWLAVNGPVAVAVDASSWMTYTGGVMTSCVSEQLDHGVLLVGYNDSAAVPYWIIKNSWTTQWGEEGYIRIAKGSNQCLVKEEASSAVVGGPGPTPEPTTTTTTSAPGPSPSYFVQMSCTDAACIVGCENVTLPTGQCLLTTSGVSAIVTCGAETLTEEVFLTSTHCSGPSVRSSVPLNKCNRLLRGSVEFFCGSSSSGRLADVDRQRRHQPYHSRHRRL
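Enzyme 1.5 nM, Z-FR-AMC 2 uM, NaOAc 100 mM pH 5.5, DTT 5 mM, Triton X-100 0.01%; 15 min RT compound preincubation; kinetic ex360/em450, 60 s delta.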
Cruzain noTriton: blocks cruzain activity in detergent-free assay | P25779 | purified cruzain, Z-FR-AMC fluorescence, no detergent | Potency, µM, without a hit: max response, negative = inhibition, usual class: inhibitors | hit rate 2.3% among 200,000;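 also: plate controls were enzyme without inhibitor for no effect and buffer without enzyme for full effect; nearly all actives have a fitted effect of over 40% in size; top concentration of the series not given in the record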
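Purified cruzain at 1.5 nM, pre-incubated 15 min with compound at room temperature in 100 mM sodium acetate pH 5.5, 5 mM DTT, 0.00005% Triton X-100. Reaction started with 2 uM Z-FR-AMC; AMC fluorescence increase over 60 s gives rate.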
* marks the source's active call; other numbers are inactive results; & = joins results of further samples; [ ] = dose if it differs, or a comment. Unless noted, calls follow the shape of the dose curve; as a rule, active = well fitted curve in the direction sought with a large enough effect; inconclusive = small, poorly fitted or top-dose-only effect, or another doubt; inactive = no such curve, though single readings can be large; an effect the other way counts as inactive or inconclusive. Potency is read from the fitted curve at half-maximal effect.

Screening CCOC(=O)c1cc(-c2ccc(C)cc2)n(CCC(=O)N2CCN(c3ccccn3)CC2)c1C returned LASV entry inh 16µM*, SARS PLP yeast 2%, StopGo reporter inconclusive, Marburg entry inh 21µM*, RE007 growth inh 1%, NS1 inh -56%, Cruzain inh Det -1.4% and Cruzain noTriton inconclusive.
For O=C(O)c1coc2ccccc12 the results were LASV entry inh 6%, SARS PLP yeast -1%, StopGo reporter -20%, Marburg entry inh -13%, RE007 growth inh -1%, NS1 inh -5%, Cruzain inh Det 3.9% and Cruzain noTriton -2%.
CCOC(=O)CNC(=O)c1c2c(nc3ccccc13)CCCC2 was read as LASV entry inh 5%, SARS PLP yeast 3%, Marburg entry inh 8%, RE007 growth inh -1%, NS1 inh 1%, Cruzain inh Det 1.3% and Cruzain noTriton 6%.
For CCOc1ccccc1N(CC(=O)N1CCc2ccccc2C1)S(=O)(=O)c1ccccc1 the results were LASV entry inh inconclusive, StopGo reporter 40%[activator], Cruzain inh Det -4.0% and Cruzain noTriton 9%.
`O=C1CC(N2CCCN(C3CC(=O)N(c4ccc(F)cc4)C3=O)CC2)C(=O)N1c1ccc(F)cc1` (stereo unspecified) gave LASV entry inh 2%, SARS PLP yeast -12%, StopGo reporter -25%, Marburg entry inh -8%&-8%, RE007 growth inh 4.5µM*, NS1 inh -139%, Cruzain inh Det -1.4% and Cruzain noTriton 17%.
`CC(C)C[C@H](NC(=O)c1nc[nH]c1C(=O)N1CCN(c2ccccc2)CC1)C(=O)OCc1ccccc1` gave SARS PLP yeast 1%, StopGo reporter -5%, RE007 growth inh -2% and NS1 inh -4%.
For CCN(CC(=O)Nc1ccc(S(=O)(=O)N2CCCC2)cc1)CC(=O)Nc1cccc(OC)c1 the results were LASV entry inh -9%[46.1 µM], SARS PLP yeast 1%, StopGo reporter 47%[activator], Marburg entry inh 3%[46.1 µM], RE007 growth inh 5% and NS1 inh 0%.
For O=C(O)c1cc2c(N3CCC(Cc4ccccc4)CC3)ncnc2s1 the results were LASV entry inh -10%, SARS PLP yeast -1%, StopGo reporter -20%, Marburg entry inh 17%[46.1 µM] and RE007 growth inh -5%.
Cc1ccc(S(=O)(=O)c2c(N)n(CC3CCOC3)c3nc4ccccc4nc23)cc1 (stereo unspecified) was read as LASV entry inh -22%, SARS PLP yeast -5%, StopGo reporter 63%[activator], Marburg entry inh inconclusive, RE007 growth inh 2%, NS1 inh 1%, Cruzain inh Det 25% and Cruzain noTriton inconclusive.
Screening O=C1SC(Nc2ccc(Cl)cc2)C(=O)N1Cc1ccccc1 (stereo unspecified) returned LASV entry inh -7%[46.1 µM], StopGo reporter 8%, Cruzain inh Det -6.3% and Cruzain noTriton -10%.
O=C(NC1CCCCCC1)c1ccc(CS(=O)Cc2ccccc2Cl)o1 (stereo unspecified) was read as LASV entry inh -16%[46.1 µM], SARS PLP yeast -2%, StopGo reporter 16%, Marburg entry inh inconclusive, RE007 growth inh 7% and NS1 inh -13%.
COCC(=O)N1CCC(n2nnc3cc(C(F)(F)F)ccc32)CC1 was read as SARS PLP yeast -1%, StopGo reporter 1%, RE007 growth inh -4% and NS1 inh -1%.
`O=C(CCC(=O)N1CCSc2ccccc21)NCCc1ccccc1` gave SARS PLP yeast -2%, StopGo reporter -8%, RE007 growth inh -1% and NS1 inh -14%.
Screening O=C(COC(=O)c1cccs1)c1ccc2c(c1)OCCO2 returned LASV entry inh inconclusive, SARS PLP yeast -28%, Marburg entry inh inconclusive, RE007 growth inh inconclusive, NS1 inh -117%, Cruzain inh Det -5.9% and Cruzain noTriton -3%.
For COc1ccc(OCC(=O)Nc2ccc3c(c2)nc(CCN2CCC(C)CC2)n3C)cc1 the results were SARS PLP yeast -7%, StopGo reporter 11%, RE007 growth inh -9% and NS1 inh -1%.
`Cc1ccnc(Sc2ccc([N+](=O)[O-])cc2[N+](=O)[O-])n1` gave LASV entry inh inconclusive, SARS PLP yeast -24%, StopGo reporter inconclusive, Marburg entry inh 13µM*, RE007 growth inh inconclusive, NS1 inh -3%, Cruzain inh Det -1.4% and Cruzain noTriton -8%.
O=C(O)c1cc([N+](=O)[O-])ccc1NCc1ccccc1 was read as LASV entry inh inconclusive, SARS PLP yeast 0%, StopGo reporter -4%, Marburg entry inh 2%[46.1 µM], RE007 growth inh 11% and NS1 inh 5%.
For CCOc1ccc(-n2c(SCC(=O)OC)nc3sc4c(c3c2=O)CCN(C)C4)cc1 the results were SARS PLP yeast -1%, StopGo reporter -27%, RE007 growth inh -12% and NS1 inh 7%.
COC(=O)C1CCN(C(=O)COC(=O)c2cc([N+](=O)[O-])ccc2N2CCOCC2)CC1 was read as LASV entry inh 7%, SARS PLP yeast -5%, StopGo reporter -15%, Marburg entry inh -3% and RE007 growth inh 0%.
CCOc1ccc2c(c1)c(=O)c(C(=O)c1ccccc1)cn2Cc1ccccc1F was read as LASV entry inh 3%[46.1 µM], StopGo reporter -25%, Marburg entry inh -3%[46.1 µM], Cruzain inh Det 1.4% and Cruzain noTriton -9%.
For O=C1NN=C(c2ccccc2)CC1c1ccc(Cl)cc1Cl (stereo unspecified) the results were LASV entry inh inconclusive, SARS PLP yeast 3%, StopGo reporter -8%, Marburg entry inh inconclusive and RE007 growth inh 2%.
For C/C(=N\NC(N)=O)c1c(O)n(C)c(=O)n(C)c1=O the results were LASV entry inh 3%, SARS PLP yeast -1%, StopGo reporter -7%, Marburg entry inh -17% and RE007 growth inh 10%.
O=C(O)CCCNC(=O)/C(=C\c1ccccc1F)NC(=O)c1ccccc1 was read as LASV entry inh 24%[46.1 µM], SARS PLP yeast 1%, StopGo reporter 14%, Marburg entry inh inconclusive and RE007 growth inh -7%.
Screening COc1ccccc1NC(=O)CN1C(=O)C(C)(C)c2ccccc21 returned LASV entry inh -4%[46.1 µM], StopGo reporter -22%, Cruzain inh Det -0.5% and Cruzain noTriton 1%.
COc1ccc(CN(C)C(=O)CSc2nnc(C3CC3)n2C2CC2)cc1 was read as LASV entry inh -1%, SARS PLP yeast 5%, StopGo reporter -17%, Marburg entry inh -3% and RE007 growth inh 5%.
`O=S(=O)(O)CCN1CCOCC1` gave LASV entry inh 16%, SARS PLP yeast 6%, StopGo reporter 12%, Marburg entry inh 5%, RE007 growth inh -2%, NS1 inh 3%, Cruzain inh Det 3.8% and Cruzain noTriton 0%.
For Cc1c(C(=O)c2ccc(F)cc2)c2ccccn2c1CCc1ccccn1 the results were LASV entry inh 8%[46.1 µM], SARS PLP yeast -5%, StopGo reporter 40µM*, Marburg entry inh inconclusive, RE007 growth inh -21% and NS1 inh -12%.
`O=C(/C=C/c1ccccc1Cl)Nn1cnc2ccccc2c1=O` gave LASV entry inh 7%, SARS PLP yeast 6%, StopGo reporter 23%, Marburg entry inh 23%, RE007 growth inh -1%, NS1 inh -2%, Cruzain inh Det -0.8% and Cruzain noTriton -10%.
For CCCN(CCC)C(=O)c1nn(C)c2c1CSc1ccc(C)cc1-2 the results were LASV entry inh -9%[46.1 µM], StopGo reporter -13%, Cruzain inh Det -5.6% and Cruzain noTriton 21%.
`O=C(Nc1ncc2c(n1)-c1ccccc1CC2)c1ccc(Cl)cc1` gave LASV entry inh -15%, SARS PLP yeast 2%, StopGo reporter 14%, Marburg entry inh 5%, RE007 growth inh 13%, NS1 inh -1%, Cruzain inh Det -8.8% and Cruzain noTriton 2%.
CC(C)(C)C1CCc2c(sc(NC(=O)c3ccco3)c2C(=O)Nc2ccccc2Cl)C1 (stereo unspecified) was read as LASV entry inh 5%[46.1 µM], StopGo reporter -2%, Marburg entry inh inconclusive, Cruzain inh Det -2.0% and Cruzain noTriton -6%.
`Cc1ccc(CNC(=O)Cn2ccn(-c3ccc(F)c(F)c3)c(=O)c2=O)cc1` gave LASV entry inh -7%[46.1 µM], StopGo reporter -13%, Cruzain inh Det -1.2% and Cruzain noTriton 3%.
CCOC(=O)C1C(=O)NC(N2CCN(Cc3ccccc3)CC2)=NC1c1ccccc1 (stereo unspecified) was read as LASV entry inh 0%, SARS PLP yeast 2%, StopGo reporter 13%, Marburg entry inh -4%, RE007 growth inh 5%, NS1 inh 3%, Cruzain inh Det 5.6% and Cruzain noTriton 5%.
CC(C(=O)N1CCN(c2ccc([N+](=O)[O-])cc2)CC1)N1C(=O)C2CC=CCC2C1=O (stereo unspecified) was read as SARS PLP yeast 0%, StopGo reporter inconclusive, RE007 growth inh 14% and NS1 inh 0%.
CCc1nnc(NC(=O)CSc2nnc(CNc3ccc(OC)cc3)n2CC)s1 was read as LASV entry inh 10%, SARS PLP yeast 1%, StopGo reporter -3%, Marburg entry inh 3%, RE007 growth inh 16% and NS1 inh 2%.
C=CCn1c(SCC(=O)c2cc(C)n(CCOC)c2C)nc2sc(C)c(C)c2c1=O was read as LASV entry inh -16%, SARS PLP yeast 7%, StopGo reporter -2%, Marburg entry inh 0%, RE007 growth inh -21%, NS1 inh 10%, Cruzain inh Det -6.5% and Cruzain noTriton inconclusive.
Screening Cc1ccccc1CNC(=O)C1CCC(=O)N(Cc2cccc(F)c2)C1 (stereo unspecified) returned LASV entry inh 25%[46.1 µM], SARS PLP yeast 3%, StopGo reporter 10%, Marburg entry inh 1%[46.1 µM], RE007 growth inh 2% and NS1 inh -8%.
For Cn1c(CNC(=O)CCNC(=O)c2cccc(Br)c2)cc(=O)n(C)c1=O the results were SARS PLP yeast 4%, StopGo reporter -2%, RE007 growth inh 15% and NS1 inh 27%.
`CC1CCC2(CC1)NC(=O)N(CC(=O)N1CCc3ccccc3C1)C2=O` (stereo unspecified) gave LASV entry inh -22%, SARS PLP yeast 9%, StopGo reporter -2%, Marburg entry inh 0%[46.1 µM] and RE007 growth inh 0%.
C/C(=C/c1ccccc1)C(=O)N1CCC(C)CC1 was read as SARS PLP yeast 5%, StopGo reporter 45%[activator], RE007 growth inh -15% and NS1 inh 6%.
